GLA inh pH 4.5 = inhibitors of human alpha-galactosidase A at pH 4.5; purified enzyme, 4-MU-alpha-Gal fluorescence, pH 4.5; activity change, negative = inhibition, % at 105 µM; 230,000 tested, under 10 active; AID 1467; inconclusive = small, poorly fitted or top-dose-only inhibition, or a rising curve; inactive = flat fitted curve, though single readings scatter; no compound was filed as active;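 further: 0% = full activity with enzyme and -100% = basal without enzyme; dose as in the result columns while the protocol names 77 µM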
Rango release inh = prevents RanGTP from dissociating the Rango-importin beta complex. AID 540253. Potency, µM (top dose mostly 46.1 µM), for the others: top-dose activity change, negative = inhibition. O95149+P62826. Biochemical FRET Rango-importin beta, RanGTP-induced dissociation. hit rate 0.071% among 340,000; active means falling FRET ratio curve, often poorly fitted, with flat reads before Ran was added; inconclusive means other falling curves, or compound fluorescence or quenching; inactive means flat or rising ratio curve;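 further: potency means the concentration at half of the fitted maximal effect; % of control where 0% means no effect; nearly all actives have a fitted effect of over 45% in size; -100% = wells without RanGTP and RCC1; the record marks most hits as doubtful in a second field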
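Recombinant Rango FRET biosensor (EYFP–snurportin 1 IBB–cerulean CFP10) at 0.1 uM premixed with 0.25 uM importin beta in PBS, 1 mM DTT, 0.02% Tween-20, 0.1% BSA. Compound added 5 min; RanGTP-RCC1 (0.6 uM Ran, 2 mM GTP, 0.2 uM RCC1) then triggers release, read at 45 min.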
miR-21 reporter = raises the signal of a miR-21 reporter; 340,000 tested, under 10 active; Potency, µM (highest dose often 38.3 µM), for the others: at the highest dose reporter change, positive = more light; HeLa miR-21 FLuc reporter, luciferase, 48 h; AID 2288; active = well fitted rising curve with a large enough effect; inconclusive = small, poorly fitted or top-dose-only effect; inactive = no such curve, though single readings can be large or run the other way;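 further: % of control where 0% means no effect; miR-21 action dims this reporter so a rising signal means less miR-21 action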
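Compounds were titrated across several concentrations (up to approximately 40 uM) and incubated 48 hours with HeLa miR-21-FLuc reporter cells (miR-21 target sequence downstream of FLuc, endogenous miR-21). Readout was firefly luciferase luminescence after lytic detection reagent.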
Rango-impB inh = inhibitors of Rango-importin beta complex formation; hit rate 0.031% among 340,000; Potency, µM (doses to about 92.2 µM), for the others: at the highest dose inhibition of complex formation; Rango CFP/YFP FRET sensor + importin beta, 45 min; AID 540263; Q14974; active = rising FRET ratio curve, often small or poorly fitted; inconclusive = mostly compound fluorescence or quenching in the first reads; inactive = flat curves in all reads;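 further: potency means the concentration at half of the fitted maximal effect; 0% = DMSO wells and 100% = buffer wells lacking importin beta; nearly all actives have a fitted effect of over 15% in size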
Target sequence (Q14974 whole entry, looked up): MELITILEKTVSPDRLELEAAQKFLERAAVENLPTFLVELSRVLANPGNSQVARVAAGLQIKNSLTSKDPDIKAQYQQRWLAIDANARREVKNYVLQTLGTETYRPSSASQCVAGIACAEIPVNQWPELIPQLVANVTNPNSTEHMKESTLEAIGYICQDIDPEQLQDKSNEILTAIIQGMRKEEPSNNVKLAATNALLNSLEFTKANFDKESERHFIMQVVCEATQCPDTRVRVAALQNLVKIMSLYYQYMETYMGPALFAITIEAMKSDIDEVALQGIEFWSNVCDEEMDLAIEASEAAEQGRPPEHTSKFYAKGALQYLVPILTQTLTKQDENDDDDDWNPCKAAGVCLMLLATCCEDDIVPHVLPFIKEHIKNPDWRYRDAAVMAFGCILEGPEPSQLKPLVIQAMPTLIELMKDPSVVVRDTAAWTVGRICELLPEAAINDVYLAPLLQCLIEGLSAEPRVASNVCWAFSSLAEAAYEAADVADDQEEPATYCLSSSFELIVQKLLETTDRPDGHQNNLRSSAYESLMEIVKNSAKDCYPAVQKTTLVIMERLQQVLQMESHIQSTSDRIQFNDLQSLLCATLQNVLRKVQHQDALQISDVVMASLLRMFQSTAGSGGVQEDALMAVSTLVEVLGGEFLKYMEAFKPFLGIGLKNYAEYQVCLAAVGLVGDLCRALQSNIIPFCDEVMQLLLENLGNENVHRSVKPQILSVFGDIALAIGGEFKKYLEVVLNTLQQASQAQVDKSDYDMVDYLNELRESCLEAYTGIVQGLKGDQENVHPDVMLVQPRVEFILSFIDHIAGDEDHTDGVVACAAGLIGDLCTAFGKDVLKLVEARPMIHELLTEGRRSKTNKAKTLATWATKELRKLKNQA
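Inhibition scored from the CFP 486 nm/YFP 530 nm FRET ratio 45 min after adding 0.125 microM importin beta to 50 nM Rango biosensor preincubated 5 min with compound (room temperature, PBS with DTT, Tween-20, BSA). No-importin wells as positive control.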
Starred values were filed as active, the others as inactive; ? = inconclusive; / = no result given; & = joins results of further samples. These rows are one share of the data; the hit share may differ from the screen's.

SMILES	GLA inh pH 4.5	Rango release inh	miR-21 reporter	Rango-impB inh
C[C@H](CO)N1C[C@H](C)[C@@H](CN(C)S(=O)(=O)c2ccccc2)Oc2ccc(NC(=O)Cn3cnnn3)cc2C1=O	/	0%	/	-1.4%
O=C(Nc1ccc(S(=O)(=O)Nc2ncccn2)cc1)c1cc([N+](=O)[O-])ccc1Cl	/	15%	3%	-1.9%
C[C@]12C(=O)N(c3cccc(F)c3)C(=O)N1[C@H]1c3ccccc3OC[C@@H]1[C@H]2c1ccccc1	/	-5%	/	3.6%
Cc1ccccc1OCC(O)CN(CCO)Cc1ccccc1 (centres undefined)	5	-4%	-2%	?
COC(=O)C1CCN(C(=O)COC(=O)C2CCN(S(=O)(=O)c3ccc(C)c(C)c3)CC2)CC1	/	-3%	/	-2.0%
O=C1CCc2cc(S(=O)(=O)Nc3ccc(F)cc3)ccc2N1	/	0%	/	0.5%
O=C(CSc1nc2ccccc2o1)NC1CCS(=O)(=O)C1 (centres undefined)	/	1%	/	-1.3%
O=C(OCC(=O)N1CCN(c2ccccc2)CC1)c1ccccc1OC(F)F	/	?	/	-6.3%
O=C(Cn1ncc2c([nH]c3ccccc32)c1=O)NCC1CCN(Cc2ccc(F)cc2)CC1	/	-16%	-1%&5%	2.5%
COc1ccc(-n2c(C)c(C)c3c(NCCCO)ncnc32)cc1	/	4%	-45%	1.5%
N#C/C(=C\c1cn(Cc2ccccc2)c2ccccc12)C(=O)NCc1ccco1	4	?	-14%	?
CCOc1ccccc1C(=O)NCC(=O)NCc1ccc(S(=O)(=O)N2CCOCC2)cc1	/	1%	/	-2.7%
O=C(Nc1ccc(-c2csc(Nc3cccc(C(F)(F)F)c3)n2)cc1)c1cc([N+](=O)[O-])cc(C(F)(F)F)c1	0	7%	-1%	1.9%
COc1ccc(CCn2c(N)c(S(=O)(=O)c3cccs3)c3nc4ccccc4nc32)cc1OC	3	18%	1%	0.6%
COc1ccc2c(c1)c(=O)c(C(=O)c1ccccc1)cn2Cc1ccc(C)cc1	1	19%	26%	-0.1%
Cc1ccc(-c2[nH]c(-c3ccc(C(=O)O)cc3)nc2-c2ccccc2)cc1	12	8%	-12%	1.3%
Cc1cc(-c2nnc3n2CCCCC3)c(C)n1-c1ccccc1	9	6%	-28%	2.7%
COc1ccc(Cl)cc1NC(=O)COC(=O)CNC(=O)c1ccc([N+](=O)[O-])c(C)c1	-4	0%	5%	-4.0%
COc1ccc(OC)c(-c2csc(-c3cccs3)n2)c1	/	-1%	-25%	0.2%
Cc1ccccc1NC(=O)Nc1ccc2c(c1)OCO2	/	-7%	-41%	0.1%
CCCn1c(=O)c(C(=O)Nc2ccccc2C)c(O)c2ccccc21	/	1%	-32%	-0.3%
COc1cc(OC)cc(C(=O)NCC(=O)N2CCN(Cc3ccccc3)CC2)c1	/	11%	/	-1.0%
Cc1cc(Cl)ccc1OCc1nnc2n1CCCCC2	-2	6%	-12%	-4.0%
O=C(CN1C(=O)c2ccccc2C1=O)Nc1ccc(N2CCOCC2)cc1	0	-11%	2%	-0.2%
CC(OC(=O)c1cc[n+]([O-])cc1)C(=O)Nc1ccc(C(N)=O)cc1 (centres undefined)	/	-1%	/	2.5%
CC(C)N(C(=O)C(F)(F)F)C(C(=O)NC1CCCCC1)c1ccncc1 (centres undefined)	2	-13%	-6%	0.1%
c1nc(N2CCN(Cc3ccc4c(c3)OCO4)CC2)c2[nH]cnc2n1	-2	?	-11%	-5.9%
CCCCN(C(=O)c1ccc(S(=O)(=O)N2CCCC2)cc1)C1CCS(=O)(=O)C1 (centres undefined)	/	27%	/	2.1%
O=C(Nc1cccc(Cl)c1N1CCCC1)c1ccc([N+](=O)[O-])o1	1	-7%	3%	0.4%
CCN(CC)S(=O)(=O)c1ccc(N2CCCC2)c(NC(=O)C2=COCCO2)c1	/	12%	/	-0.3%
CCOCCCNC(=O)C1CCN(C(=O)Nc2ccc(C)cc2)CC1	5	-10%	-2%	1.2%
CN1CCN(C(=O)c2ccc3ccccc3c2)CC1	-2	4%	-29%	-2.8%
CCn1cc(/C=C(\NC(=O)c2ccc(OC)cc2)C(=O)N2CCOCC2)c2ccccc21	/	5%	0%	3.8%
CC1=C(C(=O)N2CCN(c3cc(C)ccc3C)CC2)C2(CCCCC2)OC1=O	0	8%	-1%	-0.2%
COc1ccc(N(CC(=O)Nc2ccccc2C(N)=O)S(=O)(=O)c2ccc(C)c([N+](=O)[O-])c2)cc1	-7	15%	-35%	3.1%
CCNc1cc(N2CCOCC2)nc(SC)n1	3	13%	-2%	-0.5%
CCOc1cc(Cl)c(S(=O)(=O)NCc2ccccn2)cc1Cl	0	1%	2%	-1.5%
O=C(O)CCc1nn2cc(-c3ccccc3)nc2[nH]c1=O	-3	?	-3%	?
CCOC(=O)N1N=C(c2ccccc2)CC1(O)C(F)(F)F (centres undefined)	-1	-17%	-38%	0.6%
CCOC(=O)CSc1nnc(COc2cccc(C)c2)o1	1	5%	0%	-0.3%
CC(C)C(=NO)c1ccccc1	/	16%	/	-0.2%
CCCN1C(=O)/C(=C/c2cc(C)n(C)c2C)SC1=Nc1ccc(OC)cc1	-6	5%	-16%	-2.8%
Cc1c(C(=O)N(Cc2ccccc2)C(C)C)oc2ccc(S(=O)(=O)N3CCOCC3)cc12	/	-5%	30%	-2.9%
Cc1ccc(C(=O)NCC(c2ccco2)N2CCOCC2)cc1 (centres undefined)	/	-11%	/	4.7%
Cc1ccc(-c2nnc3n2N=C(c2ccccc2)CS3)cc1	2	3%	-19%	1.3%
O=[N+]([O-])c1ccc(O)c(/C=N/Nc2ncnc3c2cnn3-c2ccccc2)c1	/	-2%	0%	-0.2%
Cc1nnc(NC(=O)CSc2ncn(-c3ccccc3)n2)s1	0	-3%	0%	-0.4%
Cc1ccc(S(=O)(=O)n2c3ccc(F)cc3c3nc(C)sc32)cc1	-3	/	-8%	/
CCn1cc(/C=C/c2cc[n+](C)cc2)c2ccccc21	/	?	?	-0.4%
Cc1cc(N2CCN(C)CC2)nc2ccc(NC(=S)N3CCN(c4cccc(Cl)c4)CC3)cc12	2	-14%	3%	-0.8%

Additional compounds
SMILES	GLA inh pH 4.5	Rango release inh	miR-21 reporter	Rango-impB inh
CN(C(=O)CS(=O)(=O)c1cccc(Cl)c1)c1ccccc1	3	11%	-4%	-0.5%
CN(C)c1ccc(C=NCCC2(O)CCOC(C)(C)C2)cc1 (centres undefined)	-5	-14%	-7%	-0.3%
Cn1c(=O)c2c(nc(NCc3ccccc3)n2CCCc2ccccc2)n(C)c1=O	-7	?	3%	2.9%
Cc1cccc(C(=O)N[C@@H]2c3ccccc3C[C@@H]2O)n1	/	2%	/	2.8%
C/C(=N\NC(=O)c1cccc([N+](=O)[O-])c1)c1cccnc1	/	18%	4%	-0.3%
CCOc1ccccc1-n1nnnc1SCC(=O)Nc1cc2oc3ccccc3c2cc1OC	-5	-1%	-3%	5.8%
O=C1NCCN1CCNS(=O)(=O)c1ccc2ccccc2c1	3	47%	-8%	?
CC(C)C(=O)N1CCN(c2ccc(NC(=O)c3ccc([N+](=O)[O-])o3)cc2Cl)CC1	4	4%	9%	-0.4%
COC(=O)c1nn(C23CC4CC(CC(C4)C2)C3)c2c1C(=O)N(c1ccc(F)cc1)C2=O	-3	0%	-5%	0.3%
COc1cc(OC)nc(/N=C/NO)n1	-6	2%	-1%	-2.0%
COc1ccc(C(=O)NNC(=O)c2cc3cccc(OC)c3oc2=O)cc1	9	12%	-3%	0.6%
COc1ccc(CN(C(=O)CN2C(=O)c3ccccc3S2(=O)=O)C(C(=O)NCC2CCCO2)c2ccco2)cc1 (centres undefined)	/	1%	0%	0.7%
COc1ccc(C(=O)NC(=S)Nc2ccc(N3CCOCC3)c(Cl)c2)cc1[N+](=O)[O-]	4	3%	3%	3.1%
CCCCN(C(=O)c1c(C)[nH]c(C(=O)OCC)c1C)c1ccccc1	2	8%	25%	0.8%
O=[N+]([O-])/C(=C\Nc1ccccc1Cl)S(=O)(=O)c1ccccc1	9	/	-5%	/
CCS(=O)(=O)c1nc(S(=O)(=O)c2ccc(Cl)cc2)c(NCCCN2CCOCC2)s1	/	-8%	-3%	?
CC(C)CCNC(=O)C(c1cccnc1)N(CCc1ccccc1)C(=O)Cn1nnc2ccccc21 (centres undefined)	-1	-1%	-4%	1.8%
O=C(OCC1COc2ccccc2O1)c1c(F)cccc1F (centres undefined)	-2	-17%	-22%	-3.4%
CCC(C)[C@H](NC(=O)[C@@H]1Cc2c([nH]c3ccccc23)C2c3ccccc3C(=O)N21)C(=O)NCC1CCCO1 (some centres undefined)	/	-15%	12%	?
COc1cccc(NC(=O)NCc2cccn2C)c1	-20	-21%	-27%	0.1%
CC(=O)c1cc(C#N)c(SCc2ccc(F)cc2)nc1C	-1	10%	-23%	3.8%
COCCCC1CCN(C(=O)C2CCC(=O)N(C3CCCCCC3)C2)CC1 (centres undefined)	/	-3%	1%	3.8%
N/C(=N\S(=O)(=O)c1ccc(Cl)s1)c1ccccc1	1	8%	11%	-2.4%
COc1ccc(CNc2ccc(Cl)cc2)cc1Cn1ccnc1	/	-18%	10%	-0.8%
Nc1[nH]n2c(=O)cc(-c3ccccc3)nc2c1N=Nc1ccc2c(c1)OCO2	-1	/	-2%	/
CCN(CC)S(=O)(=O)c1ccc(-c2nnc3sc4cccc(C)c4n23)cc1	2	8%	-2%	-1.2%
O=[N+]([O-])c1cccc(CNc2ccc3c(c2)CCC3)c1	-5	-7%	-34%	-0.5%
CSc1ncc(C(=O)Nc2ccc(C(C)=O)cc2)c(-c2ccccc2)n1	/	-1%	-30%&-23%	0.3%
CCOC(=O)COc1ccc(C)cc1-c1ccno1	-5	1%	0%	-2.3%
O=C(NCc1cccs1)C(=O)NCC(c1ccco1)N1CCN(c2ccccc2)CC1 (centres undefined)	1	-15%	13%	7.7%
O=C(CSc1ccccc1)OCC(=O)N1CCN(C(=O)c2ccco2)CC1	/	2%	/	-0.5%
Cc1ccc2cc(/C=N/NC(=O)CN3CCCCC3)c(Cl)nc2c1	-2	11%	1%	0.3%
Cc1ccsc1C(C(=O)NC1CCCCC1)N(C(=O)c1csnn1)C1CC1 (centres undefined)	6	-16%	-6%	2.6%
CCCCCC(=O)N1CCCCC1	0	-7%	-1%	0.0%
CC(=O)Nc1cccc(C(=O)OC(C)C(=O)NC(=O)NC2CCCCC2)c1 (centres undefined)	/	12%	/	4.3%
CCc1nc(Nc2ccc3c(c2)OCCO3)c2oc3ccccc3c2n1	-2	8%	19%	2.7%
NS(=O)(=O)c1ccc(CCNC(=O)c2ccc3c(c2)N(Cc2ccccc2)CCS3)cc1	/	9%	-3%	-0.9%
CCOC(=O)c1ccc2nc(C)cc(Nc3cccc(C(=O)O)c3)c2c1	0	/	-4%&1%	/
CCN(CC)S(=O)(=O)c1ccc2c(c1)nc(CCC(=O)Nc1cccc(C(F)(F)F)c1)n2CC	-3	-1%	25%	-4.1%
O=C1CSC(c2ccccc2F)N1c1ccccc1 (centres undefined)	-1	-7%	-8%	1.0%
O=C(NN1C(=O)C2C(C1=O)C1C=CC2C12CC2)c1cccnc1 (centres undefined)	-5	0%	0%	4.1%
CC(C)C(=O)Nc1nc(-c2ccccc2)ns1	-6	3%	-13%	-2.5%
CN(C)S(=O)(=O)c1ccc(N2CCCC2)c(C(=O)NCc2ccc(Cl)cc2)c1	-6	-5%	14%	3.9%

5 entries from above in a different format:
| Molecule | GLA inh pH 4.5 | Rango release inh | miR-21 reporter | Rango-impB inh |
| --- | --- | --- | --- | --- |
| CCCCCC(=O)N1CCCCC1 | 0 | -7% | -1% | 0.0% |
| CC(=O)Nc1cccc(C(=O)OC(C)C(=O)NC(=O)NC2CCCCC2)c1 (centres undefined) | / | 12% | / | 4.3% |
| CCc1nc(Nc2ccc3c(c2)OCCO3)c2oc3ccccc3c2n1 | -2 | 8% | 19% | 2.7% |
| NS(=O)(=O)c1ccc(CCNC(=O)c2ccc3c(c2)N(Cc2ccccc2)CCS3)cc1 | / | 9% | -3% | -0.9% |
| CCOC(=O)c1ccc2nc(C)cc(Nc3cccc(C(=O)O)c3)c2c1 | 0 | / | -4%&1% | / |
